Compound activity as filed in PubChem BioAssay.
RanGTP-Imp inh = inhibitors of RanGTP-importin-beta interaction, primary screen, biochemical, FRET, CFP-Ran, YFP-importin-beta, homogeneous | Ran GTPase (GTP-bound) - importin-beta complex | inhibition, % (test concentration not listed) | actives 1.1% (n = 300,000) | cell-free CFP-Ran/YFP-importin-beta FRET ratio;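 active means most replicates above 15%; inconclusive means exactly half above 15%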;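 further: 0% = DMSO wells and 100% = Ran loaded with GDP instead of GTP; wells of about 40 µL received 100 nL stock; the first replicate is given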
FGF22 binding = binders of human FGF22 protein, primary screen, FGF22 synaptogenesis inhibitor project, biophysical, thermal shift, single point | Fibroblast growth factor 22 (Homo sapiens), Q9HCT0 | AID 651658, 2012 | actives 1.5% (n = 340,000) | calls only at 9.99 µM | recombinant FGF22 thermal shift, SYPRO orange fluorescence; percent of sucrose octasulfate shift, DMSO zero;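 active means melting point raised past a set limit in the mean and every replicate; inconclusive means no clear call; three in four hits are not shown here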
Vif A3G = inhibitors of Vif binding to APOBEC3G peptide, primary screen, biochemical, TR-FRET, GST-Vif 1-94, biotin-A3G peptide, dose response retest (AID 1117319); Virion infectivity factor (Human immunodeficiency virus type 1 group M subtype B (isolate …; TR-FRET GST-Vif / biotin-A3G peptide binding; higher % means a stronger effect; test concentration not given here; strong numbers were not always called active; one-dose inhibition, %; IC50 in µM for titrated hits; actives 0.57% (n = 260,000);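 active means above the screen mean plus three standard deviations and confirmed in dose response; inconclusive means results disagree or hit not tested in dose response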;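 further: Vif residues 1-94 fused to GST binding biotinylated APOBEC3G peptide 110-148; 0% = full assay without inhibitor and 100% = GST in place of GST-Vif; retest series ran down from 100 µM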
HNF4A DNA FP = change in binding of human HNF4A to DNA, primary screen, biochemical, fluorescence polarization, FITC-DNA; 1 h; Hepatocyte nuclear factor 4-alpha (Homo sapiens), P41235; activity change, % at 10 µM; actives 0.3% (n = 360,000); in the data active means activity change above about 30%, passing the limit was not always enough;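 further: controls were the assay level and a saturating level of protein; the project sought stronger binding though the title names inhibitors; some compounds called inactive have numbers as strong as hits; positive values seem to mean higher polarization but the record does not say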
Target sequence (P41235 whole entry, looked up): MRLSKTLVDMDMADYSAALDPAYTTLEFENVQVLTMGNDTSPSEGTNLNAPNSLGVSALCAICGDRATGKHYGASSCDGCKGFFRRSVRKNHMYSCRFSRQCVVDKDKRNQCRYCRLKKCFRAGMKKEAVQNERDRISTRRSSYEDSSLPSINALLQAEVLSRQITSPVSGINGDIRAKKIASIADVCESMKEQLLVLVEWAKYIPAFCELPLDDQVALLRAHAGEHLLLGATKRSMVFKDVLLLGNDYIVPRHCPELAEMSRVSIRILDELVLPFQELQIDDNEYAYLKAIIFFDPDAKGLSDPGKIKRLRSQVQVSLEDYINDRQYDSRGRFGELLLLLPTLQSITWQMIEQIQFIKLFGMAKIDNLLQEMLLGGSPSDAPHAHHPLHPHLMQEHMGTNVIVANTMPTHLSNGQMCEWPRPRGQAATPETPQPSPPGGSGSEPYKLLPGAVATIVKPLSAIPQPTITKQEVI
E coli growth = E. coli growth inhibition, primary screen, OD600 | Escherichia coli growth, 23 h; hits give low values | OD600 absorbance (concentration not given with the values) | actives 0.21% (n = 330,000);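 active means OD600 absorbance below the run mean of sample wells minus 3.6 SD, in any replicate, cut at about 0.56 in these data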;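 further: stock transfer was 300 nL into about 60 µL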
UCH37 DUB inh = inhibitors of human UCH37 deubiquitinase, primary screen, biochemical, Ub-AMC cleavage, fluorescence; Ubiquitin carboxyl-terminal hydrolase isozyme L5 (Homo sapiens), Q9Y5K5; purified proteasome/UCH37; inhibition, % (test concentration not listed); actives 0.33% (n = 330,000);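 active means mean of two replicates above 20%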;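 further: 0% = compound-free wells with enzyme and 100% = wells lacking proteasome; stock transfer was 100 nL into about 20 µL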
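Material: human UCH37 enzyme supplied as purified proteasome complex / Amount: 0.15 nM proteasome as dispensed / Buffer or medium: pH 7.4 Tris-HCl (50 mM) with ovalbumin, ATP-MgCl2, DTT / Times: preincubation 30 min, reaction 25 min, room temperature / Technique: AMC fluorescence from Ub-AMC cleavage, excitation 355 nm, emission 460 nm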
AF4-AF9 inh = inhibitors of AF4 peptide binding to AF9, primary screen, biochemical, AlphaScreen, biotin-AF4 peptide, FLAG-AF9, single point; Protein AF-9 (Homo sapiens), P42568; inhibition, % at 10 µM; actives 0.47% (n = 350,000); AID 651704, 2012;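 active means every replicate reaching a set inhibition limit, whatever the replicate mean, cut at about 25% in these data; inconclusive means mean inhibition reaches that limit but some replicates miss it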;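 further: 0% = plate neutral control median and 100% = total signal loss; the record names both 10 and 1 µM as test concentration; the first replicate is given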
Target sequence (P42568 whole entry, looked up): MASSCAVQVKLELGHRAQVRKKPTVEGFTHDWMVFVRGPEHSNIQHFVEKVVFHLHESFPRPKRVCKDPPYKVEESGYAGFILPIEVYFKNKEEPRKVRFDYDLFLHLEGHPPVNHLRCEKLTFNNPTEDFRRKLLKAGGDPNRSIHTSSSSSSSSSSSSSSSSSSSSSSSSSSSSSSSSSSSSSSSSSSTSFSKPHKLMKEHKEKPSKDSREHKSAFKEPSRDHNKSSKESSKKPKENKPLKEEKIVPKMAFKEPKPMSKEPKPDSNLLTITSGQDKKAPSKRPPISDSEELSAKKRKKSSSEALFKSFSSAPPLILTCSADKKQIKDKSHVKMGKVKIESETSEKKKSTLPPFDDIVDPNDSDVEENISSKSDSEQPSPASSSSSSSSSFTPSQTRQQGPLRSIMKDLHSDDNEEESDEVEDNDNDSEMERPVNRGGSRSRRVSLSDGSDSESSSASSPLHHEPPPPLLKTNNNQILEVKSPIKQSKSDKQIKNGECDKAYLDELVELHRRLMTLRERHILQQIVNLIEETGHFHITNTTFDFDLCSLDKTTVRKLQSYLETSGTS
Numbers without * were called inactive; i = inactive; ? = inconclusive; / = not tested or not shown; + = active, no number. These rows are one share of the data (hit frequency here may not be typical).

SMILES	RanGTP-Imp inh	FGF22 binding	Vif A3G	HNF4A DNA FP	E coli growth	UCH37 DUB inh	AF4-AF9 inh
Nc1ccccc1Nc1cc(-c2ccccc2)nn1-c1cccc(Cl)c1	-5.0	i	/	-1.4	0.65	0.4	31*
CC1(C(=O)Nc2cccc(OC(F)(F)F)c2)Cc2c(-c3ccc4c(c3)OCO4)ccnc2O1 (stereo unspecified)	/	i	/	0.0	/	/	-0.5
COc1cc(NC(=O)c2ccc3c(c2)S(=O)(=O)N=C2CCCCCN23)cc(OC)c1	3.1	i	8%	4.3	0.68	-0.2	-0.8
O=C1CS(=O)(=O)c2ccccc2N1	-0.8	i	13%	2.8	0.67	0.0	-0.5
O=C1C(=O)N(c2ccccn2)C(c2ccc(F)cc2)/C1=C(/O)c1ccc(Br)cc1 (stereo unspecified)	-0.1	i	/	0.3	0.73	4.9	-1.3
O=C(Nc1c2c(nc3ccccc13)CCCC2)c1ccccc1F	-1.1	i	-4%	3.1	0.71	3.9	-3.1
CCOc1ccc2[nH]c(C(=O)N/N=C/c3ccccc3OC)cc2c1	0.4	i	-6%	2.5	/	/	-19
COc1ccc(-c2nn(-c3ccccc3)cc2/C=N/N=C(N)N)cc1OC	2.2	/	6%	3.9	/	/	/
CCOC(=O)C1=C(C)N(CCCC(=O)O)C(=O)NC1c1ccc([N+](=O)[O-])cc1 (stereo unspecified)	-2.0	i	17%	3.1	0.67	5.0	-2.9
O=C(CCCOc1ccccc1)Nc1cccnc1	0.7	/	3%	-3.2	0.7	0.3	/
COc1cc(/C=C2\C(=O)NN(c3ccccc3)C2=O)cc([N+](=O)[O-])c1O	-1.8	/	21%	-0.1	/	21*	0.7
O=C(/C=C/CCc1ccc2c(c1)OCO2)N1CCCCC1	/	i	/	4.2	0.74	1.9	-0.5
CC(=O)c1c(C)[nH]c(C(=O)NCc2cccs2)c1C	7.3	/	20%	-2.1	0.64	1.2	/
CCc1cc(C(=O)O)c(NC(=O)C(c2ccccc2)c2ccccc2)s1	3.6	/	?	-0.3	0.7	6.3	/
NC(=O)C1CCN(c2nc(-c3cc4ccccc4o3)cs2)CC1	/	i	/	-2.3	0.69	1.7	-8.8
CN(C)c1ccc(NC(=O)C(=O)C2C(=O)Nc3ccccc32)cc1 (stereo unspecified)	-1.7	i	10%	-1.5	0.7	7.6	-4.6
COc1cc(Cl)c(C)cc1NC(=O)CC1SC(N2CCOCC2)=NC1=O (stereo unspecified)	/	i	5%	1.8	0.65	2.3	0.8
CCN(CC)C(=O)/C(NC(=O)c1ccccc1)=C(/Sc1ncccn1)c1ccccc1	-3.8	/	-3%	1.9	0.71	-0.2	/
COc1cccc(C2c3cc4c(cc3OC(C)(N3CCCC3)C2C)OCO4)c1O (stereo unspecified)	/	i	-10%	2.5	/	/	13
CC(C)C(=O)Nc1cccc(C(=O)Nc2nnc(C(C)C)s2)c1	0.0	/	-2%	-1.9	0.63	4.7	/
CCO[C@@H]1OC(C(=O)N2CCN(Cc3ccccc3)CC2)=C[C@H](c2ccc(C(F)(F)F)cc2)[C@H]1CCCO	-1.3	i	10%	1.9	/	-1.2	2.4
COc1ccc(Nc2ncnc3c2c(C)c(C)n3CCO)cc1	0.5	i	2%	2.3	0.67	7.1	4.4
O=C(NCc1ccccc1)C(c1ccc(F)cc1)N(C(=O)c1csnn1)C1CCCC1 (stereo unspecified)	-1.2	i	/	-5.9	0.67	-2.4	1.8
COc1ccc(CC(=O)Nc2c(C(=O)N3CCN(c4ccccc4OC)CC3)oc3ccccc23)cc1OC	21	i	/	1.9	0.67	5.0	10
CCOc1ccc(OCC)c(NC(=O)CCS(=O)(=O)c2ccc(Br)s2)c1	-2.3	/	4%	0.5	0.68	-0.5	/
Later entries:
SMILES	RanGTP-Imp inh	FGF22 binding	Vif A3G	HNF4A DNA FP	E coli growth	UCH37 DUB inh	AF4-AF9 inh
COc1ccc(C(=O)ON=C2CCN(C)CC2)cc1	0.2	i	/	1.9	0.65	1.9	-1.6
Clc1ccc2[nH]c3c(c2c1)CNCC3	-0.7	i	-1%	-1.2	0.62	3.1	-4.7
CN(C)CCNC(=O)C1(O)c2cc(Br)ccc2NC(=O)N1c1ccc(Cl)cc1 (stereo unspecified)	0.5	/	-4%	1.6	0.69	-2.1	-2.8
Cc1c(OCC(=O)NCCN2CCOCC2)ccc2c1oc(=O)c1ccccc12	-2.7	i	/	3.2	0.67	-325	-16
CCc1cccc(C)c1NC(=O)CSc1nc2ccncc2[nH]1	-4.7	i	-2%	0.7	0.63	-1.6	-0.4
Cc1ccc(NC(=O)CSc2nnc(C3CC3)n2N)cc1S(=O)(=O)N1CCOCC1	-0.5	i	-10%	-1.2	0.72	5.3	1.3
CCN(CC)CCNC(=O)c1sc2nc(-c3ccccc3)cn2c1C	-3.9	i	/	4.8	0.67	1.8	2.3
CC(=O)C1C(=O)CC(C)(O)C(C(C)=O)C1c1ccc(N(C)C)cc1 (stereo unspecified)	-1.2	/	?	-0.6	0.72	6.3	/
Cc1ccc(CSc2nc3sc(C)c(C)c3c(=O)n2Cc2ccco2)cc1	-0.7	/	5%	3.5	0.73	4.0	/
Cc1ccc(N)c(C(=O)CCCCC(=O)O)c1	-0.9	/	-3%	-1.1	0.69	1.4	/
CC(=O)Nc1ccc(S(=O)(=O)N(CCc2ccccc2)CC(=O)N/N=C/c2ccc(C(=O)O)cc2)cc1	5.1	+	/	-3.7	/	/	3.0
CN1CCN(C(=O)CN(c2cccc(Cl)c2)S(=O)(=O)c2ccccc2)CC1	6.5	/	-1%	-2.4	0.64	1.6	/
C/C=C/Cn1c(N(C)Cc2ccccc2)nc2c1c(=O)[nH]c(=O)n2C	-3.2	i	8%	2.5	0.75	2.6	3.3
CC(=O)Nc1ccc(NC(=O)c2ccc(COc3ccc4c(C)cc(=O)oc4c3)cc2)cc1	2.2	/	19%	/	0.68	-49	/
CCOc1ccc(-c2ccc(SCC(=O)Nc3nnc(C)s3)nn2)cc1	1.1	i	/	-6.0	0.73	1.8	-2.0
CCOC(=O)c1[nH]c2ccc(F)cc2c1NC(=O)C(C)N1CCc2cc(OC)c(OC)cc2C1 (stereo unspecified)	-0.2	/	-12%	1.8	0.68	-16	/
O=C(CCNS(=O)(=O)c1cccs1)N1CCN(c2cccc(Cl)c2)CC1	?	i	/	1.5	0.72	2.4	-1.6
NS(=O)(=O)c1ccc(NC(=O)CN2CCCC2)cc1	1.7	i	-1%	-2.5	0.7	1.7	-1.9
CCN(c1ccccc1)S(=O)(=O)c1ccc(Cl)c(C(=O)O)c1	0.1	/	-3%	0.2	0.55*	3.4	-0.3
COc1ccc([N+](=O)[O-])cc1/C=N/NC(=O)c1nonc1N	/	i	/	3.0	/	/	2.1
O=C(OCc1ccccc1)c1cn(-c2ccccc2)nc1-c1ccncc1	0.1	/	2%	-1.6	0.69	0.6	/
Cc1cccc(Nc2sc(C(=O)c3cc4cc(Cl)ccc4o3)c(N)c2C#N)c1	1.6	i	0%	4.9	/	/	-0.7
O=C1c2cc(S(=O)(=O)N(CCO)CCO)ccc2-c2ccc(S(=O)(=O)N(CCO)CCO)cc21	2.8	i	/	0.8	0.69	3.5	-1.0
Cn1nc(C(=O)NNC(=O)CCOc2ccc(C(C)(C)C)cc2)c2ccccc2c1=O	/	i	/	4.3	/	/	-2.9
COc1cccc(NC(=O)C(=O)NCCc2ccc(F)cc2)c1	5.0	i	4%	-5.1	0.63	8.6	-2.7

Limited to UCH37 DUB inh and FGF22 binding, for 3 of the compounds above:
compound,UCH37 DUB inh,FGF22 binding
Cc1c(OCC(=O)NCCN2CCOCC2)ccc2c1oc(=O)c1ccccc12,-325,i
CCc1cccc(C)c1NC(=O)CSc1nc2ccncc2[nH]1,-1.6,i
Cc1ccc(NC(=O)CSc2nnc(C3CC3)n2N)cc1S(=O)(=O)N1CCOCC1,5.3,i

(list continues)
SMILES	RanGTP-Imp inh	FGF22 binding	Vif A3G	HNF4A DNA FP	E coli growth	UCH37 DUB inh	AF4-AF9 inh
COC(=O)C1=C(N)Oc2c(oc(CO)cc2=O)C1c1ccc(F)cc1 (stereo unspecified)	-3.3	i	16%	-1.8	0.67	4.6	-1.4
CCc1nc2ccc(C(=O)NCCCn3ccnc3)cn2c1N(CC)C(=O)NCCc1ccccc1	/	i	/	-0.7	/	/	3.6
Cc1ccc(SC(C)C(=O)O/N=C(\N)c2ccncc2)cc1 (stereo unspecified)	1.1	i	4%	-2.0	0.7	1.3	0.3
Cc1[nH]c(=O)[nH]c(=O)c1/C=N/NC(=O)[C@@H](N)CC(C)C	-1.7	i	/	-3.2	/	/	-7.3
O=C(CSc1nc2ccccc2s1)Nc1ccc(Cl)c(C(=O)O)c1	3.4	i	15%	3.9	0.67	2.9	-2.4
COc1ccc(N2CC(C(=O)Nc3ccc(F)cc3F)CC2=O)cc1 (stereo unspecified)	1.4	/	-2%	-3.0	0.7	0.8	/
COc1ccccc1NC1SC(=O)N(c2ccccc2)C1=O (stereo unspecified)	3.8	/	-2%	-0.8	0.72	2.5	/
O=[N+]([O-])c1c(NCCO)cc(Sc2nc3ccccc3s2)c2nonc12	?	/	35µM*	-4.5	0.7	12	/
COc1ccc(COn2c(=O)c(C)[n+]([O-])c3ccccc32)cc1OC	-1.5	/	31%	5.5	0.7	8.5	/
CC(C)c1ccc(OCC(=O)NC(=S)Nc2ccc3c4c(cccc24)CC3)cc1	-2.1	/	-9%	7.5	0.72	4.9	/
O=C(NCCN1CCC(n2c(=O)[nH]c3ccccc32)CC1)c1cccc2c1-c1ccccc1C2=O	/	i	/	0.9	/	/	11
CCn1c(SCc2ccccc2)nc2c1c(=O)[nH]c(=O)n2C	1.9	i	/	5.2	0.67	6.3	4.0
O=C(Oc1ccc(-c2cnc3ccccc3n2)cc1)c1cc([N+](=O)[O-])ccc1Cl	2.8	/	-9%	0.0	0.7	/	/
Cn1c(=O)c2cc(NC(=O)c3ccccc3Cl)c(=O)oc2n(C)c1=O	1.7	/	4%	-0.4	0.73	9.2	/
CCc1ccccc1NS(=O)(=O)c1cc2c3c(c1)CCN3C(=O)CC2	-3.9	i	-10%	-4.4	0.66	0.9	1.2
NS(=O)(=O)c1ccc(CCNC(=O)c2ccc(Cl)c(S(=O)(=O)NCc3ccco3)c2)cc1	/	i	-8%	-1.9	0.73	3.5	5.8
Oc1ccc(C[C@H]2CNCCN2CC2(c3ccccc3)CC2)cc1	-3.5	i	/	2.4	/	1.0	6.7
Cc1cc2c3c(ccc(C)c3n1)N=CN2c1ccccc1	92*	/	-3%	-4.0	0.67	-208	/
Cc1cc(C(=O)Nc2ncn[nH]2)ccc1[N+](=O)[O-]	4.5	i	-4%	-0.9	0.69	2.1	-5.4
O=C(N/N=C/C=C\c1ccccc1[N+](=O)[O-])c1cc(-c2ccc3ccccc3c2)n[nH]1	1.5	i	/	7.3	/	/	-6.6

Quoted from the listing.
Under HNF4A DNA FP, O=C(Oc1ccc(-c2cnc3ccccc3n2)cc1)c1cc([N+](=O)[O-])ccc1Cl has the entry 0.0
Under RanGTP-Imp inh, COc1ccc(N2CC(C(=O)Nc3ccc(F)cc3F)CC2=O)cc1 (stereo unspecified) has the entry 1.4
